# Rango dissoc inh = inhibition of RanGTP-driven Rango-importin beta dissociation; Potency, µM (highest dose often 46.1 µM), for the others: top-dose activity change, negative = inhibition; O95149+P62826; hit rate 0.071% among 340,000; Biochemical FRET Rango-importin beta, RanGTP-induced dissociation; active means falling FRET ratio curve, often poorly fitted, with flat reads before Ran was added; inconclusive means other falling curves, or compound fluorescence or quenching; inactive means flat or rising ratio curve;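 further: potency means the concentration at half of the fitted maximal effect; % of control where 0% means no effect; nearly all actives have a fitted effect of over 45% in size; -100% = wells without RanGTP and RCC1; the record marks most hits as doubtful in a second field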
#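 Rango (0.1 uM)–importin beta (0.25 uM) complex; RanGTP-RCC1 trigger; 45 min RT; CFP/YFP FRET read.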
# Rango-impB inh = Rango-importin beta binding inhibition; Q14974; Rango CFP/YFP FRET sensor + importin beta, 45 min; Potency, µM (doses to about 92.2 µM), without a hit: at the highest dose inhibition of complex formation; hit rate 0.031% among 340,000; AID 540263; active = rising FRET ratio curve, often small or poorly fitted; inconclusive = mostly compound fluorescence or quenching in the first reads; inactive = flat curves in all reads;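 further: potency means the concentration at half of the fitted maximal effect; 0% = DMSO wells and 100% = buffer wells lacking importin beta; nearly all actives have a fitted effect of over 15% in size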
# Target sequence (Q14974 whole entry, looked up): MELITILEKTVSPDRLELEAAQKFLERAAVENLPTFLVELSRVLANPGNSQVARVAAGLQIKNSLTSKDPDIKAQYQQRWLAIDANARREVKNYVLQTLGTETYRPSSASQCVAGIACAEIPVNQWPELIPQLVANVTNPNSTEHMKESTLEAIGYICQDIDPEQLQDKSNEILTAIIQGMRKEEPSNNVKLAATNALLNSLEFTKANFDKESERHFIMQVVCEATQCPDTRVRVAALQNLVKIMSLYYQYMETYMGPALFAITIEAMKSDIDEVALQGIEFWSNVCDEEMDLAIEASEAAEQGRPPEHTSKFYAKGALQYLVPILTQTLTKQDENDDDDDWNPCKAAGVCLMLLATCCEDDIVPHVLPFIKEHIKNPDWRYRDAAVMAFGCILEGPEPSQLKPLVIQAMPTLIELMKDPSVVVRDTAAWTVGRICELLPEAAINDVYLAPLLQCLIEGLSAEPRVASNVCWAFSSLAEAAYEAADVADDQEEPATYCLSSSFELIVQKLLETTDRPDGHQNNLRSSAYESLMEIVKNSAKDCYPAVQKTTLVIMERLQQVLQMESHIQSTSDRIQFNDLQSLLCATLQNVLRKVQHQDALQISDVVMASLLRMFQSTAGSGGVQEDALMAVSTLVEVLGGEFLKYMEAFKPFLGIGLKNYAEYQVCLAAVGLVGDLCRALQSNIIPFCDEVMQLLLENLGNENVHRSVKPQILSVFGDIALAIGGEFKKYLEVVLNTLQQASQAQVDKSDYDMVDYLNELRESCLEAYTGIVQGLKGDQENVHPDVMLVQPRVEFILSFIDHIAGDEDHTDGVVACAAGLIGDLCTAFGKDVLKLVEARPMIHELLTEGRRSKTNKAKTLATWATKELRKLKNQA
#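 Inhibition scored from the CFP 486 nm/YFP 530 nm FRET ratio 45 min after adding 0.125 microM importin beta to 50 nM Rango biosensor preincubated 5 min with compound (room temperature, PBS with DTT, Tween-20, BSA). No-importin wells as positive control.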
# miR-21 FLuc = miR-21 reporter, rising signal; HeLa miR-21 FLuc reporter, luciferase, 48 h; Potency, µM (doses to about 38.3 µM), for inactives: at the top dose reporter change, positive = more light; 340,000 tested, under 10 active; active = well fitted rising curve with a large enough effect; inconclusive = small, poorly fitted or top-dose-only effect; inactive = no such curve, though single readings can be large or run the other way;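 further: % of control where 0% means no effect; miR-21 action dims this reporter so a rising signal means less miR-21 action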
#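 Luminescence from a firefly luciferase reporter carrying a miR-21 binding site downstream, stably expressed under a CMV promoter in HeLa cells that make miR-21 endogenously, reports miRNA modulation after 48 h compound exposure up to approximately 40uM final.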
# GLA inh pH 4.5 = inhibitors of human alpha-galactosidase A at pH 4.5; P06280; activity change, negative = inhibition, % at 105 µM; 230,000 tested, under 10 active; purified enzyme, 4-MU-alpha-Gal fluorescence, pH 4.5; inconclusive = small, poorly fitted or top-dose-only inhibition, or a rising curve; inactive = flat fitted curve, though single readings scatter; no compound was filed as active;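 further: 0% = full activity with enzyme and -100% = basal without enzyme; dose as in the result columns while the protocol names 77 µM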
# * = called active by the depositor; ? = inconclusive; / = not tested or not shown; & = joins results of further samples. The list is partial. The share of hits here may be higher or lower than overall.
SMILES	Rango dissoc inh	Rango-impB inh	miR-21 FLuc	GLA inh pH 4.5
CC(C)COC(=O)C1C2C=CC3(CN(C(C)c4ccc(Br)cc4)C(=O)C13)O2 (stereo unspecified)	-17%	3.5%	1%	-1
Cc1ccc(S(=O)(=O)N2CCOC2CNC(=O)C(=O)NCc2cccnc2)cc1 (stereo unspecified)	-10%	8.3%	-5%	-5
COc1cc2cnc(-c3ccccc3)c(-c3cccc(C(F)(F)F)c3)c2cc1OC	-1%	-2.3%	/	/
COc1cccc(-c2cc(C(=O)Nc3cccnc3)no2)c1	8%	-0.2%	-26%	-3
O=C(C1CCN(S(=O)(=O)c2cccc3cccnc23)CC1)N1CCCCC1	8%	-2.5%	-4%	/
Cn1cc(C(=O)N2CCc3ccccc32)cn1	15%	-2.7%	-45%	-2
O=C(Nc1ncn[nH]1)c1cc([N+](=O)[O-])ccc1Cl	6%	0.3%	-1%	/
O=C(CSc1nccn1-c1ncc(C(F)(F)F)cc1Cl)c1ccc(Br)cc1	1%	-0.7%	-33%	-3
O=C(OCC(=O)N1CCCC1)c1cc(F)c(F)cc1Cl	14%	-5.1%	-4%	/
O=C(NCc1ccco1)c1cccc(-c2nnc(-c3ccccc3)o2)c1	13%	0.8%	-4%	2

# Following part:
SMILES	Rango dissoc inh	Rango-impB inh	miR-21 FLuc	GLA inh pH 4.5
CN(C)c1ccc(C(O)Cc2nc3ccccc3n2C)cc1 (stereo unspecified)	0%	0.0%	-15%	/
O=C(Nc1ccnc(=O)[nH]1)c1sc2ccccc2c1Cl	11%	0.5%	-17%	0
COc1ccccc1CCNC(=O)C1(C)CC1(Cl)Cl (stereo unspecified)	2%	-3.0%	-1%	/
COc1ccc(NC(=O)CC2COc3ccccc3O2)c(OC)c1 (stereo unspecified)	0%	4.1%	-23%	4
CCOC(=O)c1c(C)[nH]c(C(=O)N/N=C\c2ccccc2O)c1C	-17%	1.6%	-24%	-3
Cc1ccc(-n2nnnc2CCl)cc1	-5%	0.6%	18%	13
COc1cc(CNCCO)ccc1OC1CCCC1	1%	-3.1%	0%	13
S=C(Nc1ccc(Nc2ccccc2)cc1)Nc1ccccn1	12%	-5.6%	8%	3
CCCCNC(=S)NNC(=O)c1csc(C)c1CC	2%	0.5%	-1%	-5
NCCCC[C@H](N[C@@H](CCc1ccccc1)C(=O)O)C(=O)N1CCC[C@H]1C(=O)O	-18%&3%	3.8%&-1.0%	-2%	6

# Next compounds:
SMILES	Rango dissoc inh	Rango-impB inh	miR-21 FLuc	GLA inh pH 4.5
C[C@H](CO)N1C[C@H](C)[C@@H](CN(C)Cc2ccc3c(c2)OCO3)Oc2c(NS(C)(=O)=O)cccc2C1=O	3%	-0.5%	/	/
COC(=O)C(NNc1ccccc1)(NC(=O)c1ccccc1F)C(F)(F)F (stereo unspecified)	?	2.5%	-7%	4
CCOC(=O)C1C(=O)CC(C)(O)C(C(=O)OCC)C1c1cccs1 (stereo unspecified)	-8%	1.2%	1%	5
O=C(Nc1nnc(Cc2ccccc2F)s1)c1ccccc1Cl	1%	0.5%	-12%	/
COc1ccc(OC)c(CC(=O)Nc2ccc3c(c2)CCC3)c1	-3%	?	-4%	/
CN(C)/C=C1\SC(=S)N(c2ccc(Br)cc2)C1=O	6%	-1.5%	-47%	5
O=C(c1cc(S(=O)(=O)N2CCOCC2)ccc1Cl)N1CCN(c2ccccn2)CC1	0%	0.1%	0%	-5
CCN(c1ccccc1)S(=O)(=O)c1cc(C(=O)NCC(c2ccc(OC)cc2)N(C)C)ccc1C (stereo unspecified)	-1%	-0.3%	/	/
Cc1cc(C)cc(-n2nnn(C3C/C(=N/NC(N)=S)C4OCC3O4)c2=S)c1 (stereo unspecified)	6%	0.2%	1%	0
O=C(CCCOc1ccccc1)Nc1ccccc1C(F)(F)F	1%	0.8%	-13%	6

# Later entries
SMILES	Rango dissoc inh	Rango-impB inh	miR-21 FLuc	GLA inh pH 4.5
CN(CC(=O)Nc1ccc(Cl)c(S(=O)(=O)N2CCOCC2)c1)C(=O)c1ccc(C#N)cc1	4%	4.1%	/	/
Cc1csc(NC(=O)CSc2nnc(NC(=O)COc3ccc(Cl)cc3)s2)n1	-8%	-2.9%	-6%	-3
CCN(CC)CCNC(=O)C1(O)c2cc(Br)ccc2NC(=O)N1c1ccc(Cl)cc1 (stereo unspecified)	-3%	-0.1%	-4%	/
COc1ccc2[nH]c(=O)c(C(c3nnnn3C(C)(C)C)N(Cc3ccco3)CC3CCCO3)cc2c1 (stereo unspecified)	7%	0.7%	-1%	-3
O=C(NCCCN=C1NS(=O)(=O)c2ccccc21)c1ccccc1Cl	-6%	-2.6%	-3%	/
CC(=O)Nc1ccc(SCC(=O)c2cc(C)n(Cc3cccs3)c2C)cc1	-2%	0.8%	-25%	-8
CC(=O)Nc1ccc(N2C(=O)C3C4C=CC(CC4)C3C2=O)cc1 (stereo unspecified)	-15%	-1.7%	0%	/
Cc1cccc(C)c1NC(=O)C(C)N1CCCCC1 (stereo unspecified)	-7%	-0.6%	-1%	1
Cc1sc(NC(=O)c2ccco2)c(C(c2cccnc2)N2CCN(CCO)CC2)c1C (stereo unspecified)	6%	0.5%	4%	0
O=C(NCCC1CC1(Cl)Cl)Nc1ccccc1 (stereo unspecified)	-6%	0.1%	-37%	4

# Compound profiles (already shown). Order of values: Rango dissoc inh | Rango-impB inh | miR-21 FLuc | GLA inh pH 4.5
# `Cc1csc(NC(=O)CSc2nnc(NC(=O)COc3ccc(Cl)cc3)s2)n1` is entered as -8% | -2.9% | -6% | -3
# `COc1ccc(NC(=O)CC2COc3ccccc3O2)c(OC)c1` (stereo unspecified) is entered as 0% | 4.1% | -23% | 4

# (listing goes on)
SMILES	Rango dissoc inh	Rango-impB inh	miR-21 FLuc	GLA inh pH 4.5
NS(=O)(=O)c1ccc(CNC(=O)NC2(c3ccccc3)CC2)cc1	-9%	-4.7%	-3%	-1
Cc1ccccc1OCCC(=O)OCC(=O)N(C)c1c(N)n(Cc2ccccc2)c(=O)[nH]c1=O	-6%	0.5%	0%	/
Cc1ccc(N(CC(O)CN2CCOCC2)S(=O)(=O)c2ccc3ccccc3c2)cc1 (stereo unspecified)	11%	4.3%	-4%	-19
NS(=O)(=O)c1ccc(NC(=O)COC(=O)CN2C(=O)C3CC=CCC3C2=O)cc1 (stereo unspecified)	-1%	-1.5%	/	/
CCc1ccccc1NC(=O)CN1CCN(C(=O)C2CCN(C(=O)/C=C/c3ccccc3)CC2)CC1	1%	0.5%	/	/
CN1CCN(C(=S)NC(=O)c2ccccc2Cl)CC1	5%	0.3%	-3%	/
O=C(CC1C(=O)NCCN1CC(c1ccccc1)c1ccccc1)NC1CC1 (stereo unspecified)	-2%	5.3%	-1%	-7
O=C1C(=O)c2ccc(-c3ccccc3)cc2-c2ccccc21	10%	6.2%	-7%	4
CCCOC(=O)c1ccc(Oc2c(-c3ccc(OCC)cc3O)n[nH]c2C)cc1	7%	0.3%	-1%	0
CC(=O)n1c(C=Nc2ccccc2)c(O)c2ccccc21	?	?	-8%	-9

# Following part:
SMILES	Rango dissoc inh	Rango-impB inh	miR-21 FLuc	GLA inh pH 4.5
COC(=O)c1ccc(NC(=S)NNC(=O)CC(C)C)cc1	3%	2.1%	-9%	-6
CN(C)c1ccc(N=c2sc3ccccc3n2C)cc1	-3%	-4.7%	-27%	0
Fc1cccc(F)c1/C=C/c1ccc2ccccc2n1	2%	0.4%	-23%	-9
COc1ccc(Cn2nnnc2C(c2cccs2)N2CCCCCC2)cc1 (stereo unspecified)	-8%	3.8%	3%	-12
O=C(NCCOc1ccccc1F)c1cc(F)c(F)cc1Cl	0%	8.7%	-33%	-2
CN(Cc1nc2ccccc2c(=O)[nH]1)C(=O)c1cccc(S(=O)(=O)N2CCCCCC2)c1	-8%	-0.5%	/	/
COc1ccc(NC(=O)C2C3C=CC(C3)C2C(=O)NCc2ccco2)cc1 (stereo unspecified)	0%	-2.7%	-15%	5
CCCCC(=O)Nc1cnc(NC(=O)c2cccs2)cc1C	-18%	-1.4%	-32%	/
COc1ccc(S(=O)(=O)CCC(=O)O)cc1	23%	0.1%	-3%	1
O=C(NCCCCc1ccccc1)C1CC(c2ccccc2C(F)(F)F)=NO1 (stereo unspecified)	1%	3.6%	-2%	-4

# (continued)
SMILES	Rango dissoc inh	Rango-impB inh	miR-21 FLuc	GLA inh pH 4.5
O=C(NCCCN1CCOCC1)c1ccc2c(c1)N(Cc1cccc(Cl)c1)C(=O)CS2	-19%	?	3%	/
CCN(CC(=O)NCc1ccc(F)cc1)Cc1nc2cc(Cl)ccc2c(=O)[nH]1	7%	?	4%	4
COc1ccc(NC(=O)CCC(=O)c2cccs2)cc1Cl	1%	-1.1%	-11%	/
COc1cc2c(cc1OC)C1=NC(=O)CN1C(SCc1ccccc1C)=N2	-9%	-2.4%	-6%	3
COc1ccccc1C(=O)Nc1ccccc1C(=O)Nc1ccccc1	1%	-3.7%	/	/
Cn1c(CSc2ncccn2)nnc1SCC(=O)N1CCCCC1	12%	-0.3%	2%	3
CCOC(=O)/C=C1/N(C)c2ccccc2C1(C)C	-13%	2.7%	1%	8
O=C(NCCc1ccccc1)c1cc(=O)c2ccccc2o1	-6%	9.6%	-21%	6
CN=c1scc(-c2cccs2)n1/N=C/c1ccc(O)c(O)c1O	1%	1.1%	-3%	-8
CCCCCCNc1cc(C)oc(=O)c1C(C)=O	-4%	0.2%	-20%	-8

# Remaining list, next part:
SMILES	Rango dissoc inh	Rango-impB inh	miR-21 FLuc	GLA inh pH 4.5
CCOC(=O)c1c(NC(=O)COC(=O)Cc2n[nH]c(=O)c3ccccc23)sc(C(=O)NC)c1C	11%	0.5%	/	/
Cc1cc(C(=O)C(C)Sc2cccc[n+]2[O-])c(C)n1-c1ccc(Cl)cc1 (stereo unspecified)	-1%	-1.0%	-16%	4
COc1ccc(/C=C(\C#N)C(=O)NC(C)c2ccccc2)cc1O (stereo unspecified)	8%	0.1%	6%	/
COC(=O)CC1COc2ccccc2N1C(=O)c1cc(OC)c(OC)c(OC)c1 (stereo unspecified)	7%	-1.0%	-5%	/
C/C(=N\NC(=O)c1ccc(C)cc1)c1c(C)[nH]n(-c2ccccc2)c1=O	-20%	?	1%	/
Cc1nc(C)c(-c2nnc(-c3ccccc3Cl)o2)cc1C(=O)NN	8%	0.3%	-2%	7
CC(=O)Nc1ccc(NC(=O)CSc2nnc3c4ccccc4n(C)c3n2)cc1	0%	-0.4%	-4%	-2
COc1ccc(OC)c(NC(=O)NCc2cccnc2)c1	3%	2.7%	-2%	/
Cc1c(-c2ccco2)[n+](=O)c2c(n1[O-])CCC2	0%	-1.0%	-3%	4
CCOc1ccc(CC(=O)NC2CC(C)(C)N(C)C(C)(C)C2)cc1OCC	12%	1.6%	/	/

# Further records follow.
SMILES	Rango dissoc inh	Rango-impB inh	miR-21 FLuc	GLA inh pH 4.5
COc1ccc(Cl)cc1C(=O)NNC(=S)NC1CCCC1	-5%	0.3%	-3%	4
CC(C)C[C@H](NC(=O)C1CCN(C(=O)[C@H](Cc2ccccc2)NC(=O)OC(C)(C)C)CC1)C(=O)O	-4%	-2.3%	-1%	/
CC(=O)c1cccc(N(C(=O)Cn2nnc3ccccc32)C(C(=O)NCC2CCCO2)c2ccc(N3CCOCC3)cc2)c1 (stereo unspecified)	-15%	2.1%	-1%	16
O=C(Cc1c(O)c2ccccc2[nH]c1=O)NCc1ccccc1	9%	-0.3%	-3%	3
CCOC(=O)C1(C)NC(c2ccc(OC)cc2OC)C2C(=O)N(CC)C(=O)C21 (stereo unspecified)	10%	5.8%	-1%	5
Cc1cc(N2CCN(c3ccccc3)CC2)nc(N2CCOCC2)n1	12%	-1.5%	-1%	-1
CC(C)Cc1ccc(CN2CCCC(NC(=O)c3nn(C)c(=O)c4ccccc34)C2)cc1 (stereo unspecified)	-1%	-1.8%	0%	/
Cc1ccsc1/C=N/n1c(-c2ccco2)n[nH]c1=S	24%	-3.3%	-3%	3
CC(C)C(=O)Nc1ccc(C(=O)NNC(=O)CCc2ccccc2)cc1	24%	0.9%	-10%	2
CCCCCCCNC(=O)C1(CC2CC(c3cccc(Br)c3)=NO2)CCN(C(=O)C2(C)CC2)CC1 (stereo unspecified)	-11%	2.8%	/	/

# Bioassay records: PubChem, National Center for Advancing Translational Sciences (NCATS)
